Polio RdRp inh – poliovirus RNA polymerase inhibition; poliovirus polymerase elongation, fluorescence polarization; active compounds read low; 150,000 tested, 0.66% active; AID 588519; P03300; % elongation, % (compound at 16.7 µg/mL); in the data active = % elongation below about 90%; also: some results filed as inactive read as strong as hits
MbtI inh – inhibitors of Mycobacterium tuberculosis siderophore enzyme MbtI | inhibition, %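 (about 17 µg/mL by stock and volumes)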 | purified MbtI enzyme, fluorescence intensity read-out | P9WFX0 | 100,000 tested, 0.89% active;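 active = above 50% in both replicates, above 80% if mildly self-fluorescent; inactive = the rest, strongly fluorescent compounds included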;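 also: 0% = mean of negative and 100% = mean of positive controls; one replicate is shown; some compounds called inactive have numbers as strong as hits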
Target sequence (P9WFX0 whole entry, looked up): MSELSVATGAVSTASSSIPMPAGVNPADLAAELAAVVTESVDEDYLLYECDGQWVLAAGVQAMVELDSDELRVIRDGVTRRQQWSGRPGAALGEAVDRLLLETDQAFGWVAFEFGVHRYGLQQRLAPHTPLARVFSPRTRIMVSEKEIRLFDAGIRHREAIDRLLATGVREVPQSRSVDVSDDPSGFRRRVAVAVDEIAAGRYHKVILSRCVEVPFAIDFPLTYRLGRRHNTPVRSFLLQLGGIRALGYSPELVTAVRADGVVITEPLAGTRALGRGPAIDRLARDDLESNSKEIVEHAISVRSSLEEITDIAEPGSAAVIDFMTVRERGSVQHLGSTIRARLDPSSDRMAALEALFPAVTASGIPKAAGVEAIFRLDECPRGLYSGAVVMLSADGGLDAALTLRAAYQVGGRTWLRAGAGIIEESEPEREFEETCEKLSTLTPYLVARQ
Mtb MenB inh – inhibitors of Mycobacterium tuberculosis MenB enzyme; P9WNP5; MenB enzyme assay, absorbance read-out; some hits fall short of the stated cut; inhibition, %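 (about 12 µg/mL by stock and volumes)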; 100,000 tested, 0.43% active; AID 540299;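 active = mean of two replicates above 30%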;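 also: 0% = no compound and 100% = wells with inactive enzyme; the first replicate is given; strong numbers were not always called active; inactives centre near -10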
Target sequence (P9WNP5 whole entry, looked up): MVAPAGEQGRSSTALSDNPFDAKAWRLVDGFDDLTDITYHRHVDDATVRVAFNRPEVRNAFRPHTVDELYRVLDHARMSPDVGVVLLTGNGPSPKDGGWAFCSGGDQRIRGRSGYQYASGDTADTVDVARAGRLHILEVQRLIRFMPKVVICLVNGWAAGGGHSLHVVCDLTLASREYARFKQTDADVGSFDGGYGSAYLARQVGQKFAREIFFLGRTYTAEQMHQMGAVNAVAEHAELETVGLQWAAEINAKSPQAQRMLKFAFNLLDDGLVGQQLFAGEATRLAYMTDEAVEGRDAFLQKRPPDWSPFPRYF
Polio RdRp inh intensity – recorded beside Polio RdRp inh, whose call it bears; % elongation; measured here: total intensity read-out; formula for this scale not given here;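 total fluorescence in place of polarization; lower means less elongation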
* = called active by the depositor; . = no result given; & = joins results of further samples.

SMILES	Polio RdRp inh	Polio RdRp inh intensity	MbtI inh	Mtb MenB inh
Cc1sc2ncn(CC(=O)OC3CCCCC3)c(=O)c2c1C	103	97	.	-18
CCCC(C)C(=O)Nc1cccc(Br)c1 (stereo not drawn)	100	100	.	-6
Cc1cc(C)nc(/N=C(/NC(=O)C(C)(C)C)Nc2ccccc2)n1	102	103	-2	-1
COCCCNC1=C(C#N)C(=O)NC(c2cccs2)S1 (stereo not drawn)	100	98	-5	-5
CN(C)c1cccc(C(=O)OCC(=O)C23CC4CC(CC(C4)C2)C3)c1	101	105	110	-10
CCC(=O)N(c1nnc(SCC(=O)N2CCCc3ccccc32)s1)C1CC1	104	106	-12	-12
N#C/C(=C\c1ccc(O)c(O)c1)C(=O)NCc1ccccc1	99&101	106&104	-2	-12
CC1(C)CC(NCc2ccncc2)CC(C)(C)N1	105	102	.	-19
CC(C)[C@H](NC(=O)c1ccccc1)C(=O)Nc1ccc(N2CCOCC2)cc1	99	104	-3	-7
CC(C)(C)c1cc(Sc2nc(N3CCOCC3)nc(N3CCOCC3)n2)cc(C(C)(C)C)c1O	108	102	.	-26
COc1cccc(OC)c1C(=O)N1CCCN(c2nc3ccc(Cl)cc3s2)CC1	110	112	-14	-8
CN(Cc1ccccc1)C(=O)CN1CCN(Cc2ccc(Cl)cc2)C1=O	100	104	-3	5
COc1ccccc1-n1c(C)nc2cc(C(=O)O)ccc21	100	103	18	-2
COC(=O)c1ccc(CSc2nnc(Cc3cccs3)n2C2CCCCC2)o1	109	104	-8	-8
CC1CCN(c2nnc(-c3cccs3)c3ccccc23)CC1	102	108	-4	-27
Cc1nnc(NC(=O)CCc2c[nH]c3ccccc23)o1	97	95	101	-23
O=C(NCc1ccc(F)cc1)c1cc(-c2ccccc2)n[nH]1	103	103	-3	-12
c1ccc(C2=NNC(=NCC3CCCO3)SC2)cc1 (stereo not drawn)	114	114	33	-6
FC(F)Oc1ccc(NC(=S)NNc2nc3ccccc3o2)cc1	99	103	13	-38
CCOC(=O)C(C)n1cnc2c(nnn2Cc2ccc(Cl)cc2)c1=O (stereo not drawn)	100	101	-3	1
CC(=O)N(C(C)=O)c1c(N2CCOCC2)c2ccccc2oc1=O	99	101	10	4
CN(Cc1ccccc1)S(=O)(=O)c1ccc2[nH]c(=O)c(=O)[nH]c2c1	102	103	118	-8
CCn1nc(C)c(CCNC(=O)NCCc2ccccc2)c1C	101	103	-22	-16
CCOC(=O)C1(c2ccccc2)CCN(Cc2cccc(C(=O)O)c2)CC1	106	107	.	-8
COC(=O)COc1ccc(NC(=O)c2ccccc2C)cc1	103	102	-5	-35

Next section
SMILES	Polio RdRp inh	Polio RdRp inh intensity	MbtI inh	Mtb MenB inh
COc1ccc(C2(C(=O)O)CCCC2)cc1OC	102	101	4	-47
COc1ccc(Br)cc1CN1CCN(C(=O)c2cccc(OC)c2OC)CC1	103	103	-4	-21
O=C(Nc1nc2ccccc2s1)C1CC1	104	110	.	-13
O=C(COC(=O)c1sc2ccccc2c1Cl)NCc1ccccc1	100	95	0	.
Cc1noc(C)c1COc1ccc(C(=O)NCc2cccnc2)cc1	101	103	1	13
C=CCc1ccccc1OCC(O)CN1CCNCC1 (stereo not drawn)	101	101	5	9
CC(NC1CCCc2ccccc21)C(=O)NCc1ccc2c(c1)OCO2 (stereo not drawn)	102	102	-2	-7
O=S(=O)(c1ccc(-c2ccccc2)cc1)N1CCCC1	100	101	3	-20
CCOC(=O)/C(=C\c1ccsc1)C1=Nn2c(nnc2-c2ccc(OC)cc2)SC1	101	104	20	-15
CCC(=O)N/C=C/n1cnc2cc(C(F)(F)F)ccc21	102	96	-4	.
O=C(O)c1ccccc1C(=O)NCC(O)c1ccccc1 (stereo not drawn)	100	97	-3	-15
C=CCn1c(COc2ccc(OC)cc2)n[nH]c1=S	103	101	38	-50
CCCn1c(NC(=O)CCC2CCCC2)nc2ccccc21	104	111	-9	-26
O=S(=O)(Cc1ccccc1)N1CCn2c(nc3ccccc32)C1	100	100	5	-7
O=C(O)C1CCCN(c2c(-c3ccccc3)c3cc(Cl)ccc3[nH]c2=O)C1 (stereo not drawn)	104	105	-2	-8
COc1cc2c(NC(C)=O)c(CN(C)C)oc2c(Cl)c1Cl	110	115	.	5
O=C(c1ccc(Nc2nc(-c3ccccc3)c3cc(Br)ccc3n2)cc1)N1CCOCC1	108	117	.	-21
Oc1cccc(-c2nc(=S)c3c([nH]2)Oc2ccccc2C3)c1	102	102	3	-11
Cc1ccc2cc(CN(CCN3CCCC3)C(=O)NC3CCCCC3)c(=O)[nH]c2c1C	105	103	106	-37
Cc1noc(C)c1C(=O)c1c(C)[nH]n(-c2ccccc2)c1=O	101	101	4	13
C=CCNS(=O)(=O)c1ccccc1	97	104	-3	-7
O=C(CN1CCOCC1)N/N=C/c1ccccc1	100	101	7	-20
CC1(C)CC(=O)C=C(NCCc2ccccc2)C1	101	101	24	33*
COCc1ccc(C(=O)NCc2ccncc2)cc1	101	101	-2	-12
Cn1c(CCC(=O)O)nc2ccccc2c1=O	111	105	-6	-19

Continued:
SMILES	Polio RdRp inh	Polio RdRp inh intensity	MbtI inh	Mtb MenB inh
CN1CCc2nc(NC(=O)c3ccc(S(=O)(=O)N(C)C)cc3)sc2C1	96	100	5	-43
CC(C)N(C(=O)NC(=O)c1ccc(F)cc1F)C(C)C	104	109	-10	9
COc1ccc(N2C(=O)c3c(c4ccccc4n3C)C2c2cccc(OC)c2)cc1 (stereo not drawn)	102	100	138	-13
CC(=O)Nc1nc(-c2cccs2)cs1	101	94	0	-18
CC1Cc2cc(S(N)(=O)=O)ccc2N1Cc1cc(Cl)cc2c1OCOC2 (stereo not drawn)	105	111	-4	-12
Cc1onc(C(C)C)c1C(=O)O	104	103	-3	-28
Cc1nc2c(c(=O)c3ccccc3n2C)c(=O)n1Cc1ccco1	103	105	-2	-5
CCN(c1ccccc1)S(=O)(=O)c1ccc(N(C)C2CCCCC2)nc1	104	106	-4	-19
Cc1ccc(N=CN(C)C=Nc2ccc(C)cc2C)c(C)c1	98	102	-9	-5
O=c1c2c(-c3cccs3)csc2ncn1-c1ccccc1	104	108	.	-29
Cc1cc(CNS(=O)(=O)c2ccc(N3CCOCC3)nc2)c(C(F)(F)F)o1	102	105	-17	-3
CCC(=O)N1c2ccc(S(=O)(=O)CCC(=O)Nc3ccccc3OC)cc2CC1C (stereo not drawn)	104	100	7	-17
C#CCOc1cccc(C=Nn2cnnc2)c1	104	104	15	-13
C(=C\c1ccccc1)/CSc1nnc(COc2ccccc2)n1Cc1ccco1	102	102	9	-24
CN(C)CCNc1nc(-c2noc(NCCN(C)C)n2)no1	106	109	.	-16
CC12CCCCC1N(CC(N)=O)c1ccccc12 (stereo not drawn)	107	105	.	-18
CSc1ccc(/C=C2\SC(=O)N(CCNC(=O)CSCc3c(C)noc3C)C2=O)cc1	104	108	3	-75
CC1CCC(C(C)C)C(OCC(O)CN2CCc3ccccc3C2)C1 (stereo not drawn)	99	103	-3	.
O=C1CSC(=O)N1c1ccccc1	99	103	-3	5
CCOC(=O)c1cc2c(c(CSc3ccc(Cl)cc3)c1)OCOC2	103	109	-6	-7
CC(C)(C)n1ncc2c(=O)n(CC(=O)OCc3ccccc3)cnc21	105	106	1	-13
COc1ccc(-c2nc(SC(CC(=O)NCc3ccco3)c3cc(OC)c(OC)c(OC)c3)n[nH]2)cc1 (stereo not drawn)	110	98	-4	-36
COc1ccc2cc3cc(C(=O)NCCN4CCN(c5ccccc5F)CC4)sc3nc2c1	102	99	-52	-42
O=C(Cc1cccs1)NCCOc1ccccc1F	101	107	189	-1
CC(=O)N1c2ccc(S(=O)(=O)N(C)CC(=O)Nc3cccc(C)c3)cc2CC1C (stereo not drawn)	100	102	-7	-7

2 records picked at random from those above, as already listed:
SMILES	Polio RdRp inh	Polio RdRp inh intensity	MbtI inh	Mtb MenB inh
CCC(=O)N/C=C/n1cnc2cc(C(F)(F)F)ccc21	102	96	-4	.
CC(NC1CCCc2ccccc21)C(=O)NCc1ccc2c(c1)OCO2 (stereo not drawn)	102	102	-2	-7

The main list resumes with the 6 entries that preceded the break.
SMILES	Polio RdRp inh	Polio RdRp inh intensity	MbtI inh	Mtb MenB inh
CCOC(=O)c1cc2c(c(CSc3ccc(Cl)cc3)c1)OCOC2	103	109	-6	-7
CC(C)(C)n1ncc2c(=O)n(CC(=O)OCc3ccccc3)cnc21	105	106	1	-13
COc1ccc(-c2nc(SC(CC(=O)NCc3ccco3)c3cc(OC)c(OC)c(OC)c3)n[nH]2)cc1 (stereo not drawn)	110	98	-4	-36
COc1ccc2cc3cc(C(=O)NCCN4CCN(c5ccccc5F)CC4)sc3nc2c1	102	99	-52	-42
O=C(Cc1cccs1)NCCOc1ccccc1F	101	107	189	-1
CC(=O)N1c2ccc(S(=O)(=O)N(C)CC(=O)Nc3cccc(C)c3)cc2CC1C (stereo not drawn)	100	102	-7	-7
CC(=NCc1ccccc1)c1c(C)cc(C)cc1O	99	106	-7	0
O=S(=O)(NCc1ccco1)c1ccc(S(=O)(=O)N2CCCCC2)cc1	100	100	-6	10
CC1=CC(C)C(CNc2ccccc2)C(C)C1 (stereo not drawn)	104	111	4	-23
Cc1ccc(S(=O)(=O)N(C)CC(=O)OCc2nc3ccccc3s2)cc1	105	110	11	-10
N#Cc1c(=O)c2cccnc2n2c1sc1ccccc12	103	102	17	11
O=C(c1ccco1)N1CCCC(c2nc(-c3ccc(S(=O)(=O)NCc4ccccc4)cc3)no2)C1 (stereo not drawn)	101	106	-6	-105
CNC(=O)/C=C1/N(C)c2ccccc2C1(C)C	98	98	39	-22
CCCCC1C(=O)NC(=Nc2nc(C)c3ccc(OC)cc3n2)NC1=O (stereo not drawn)	102	102	-1	7
CC1CCN(C(=O)COC(=O)c2cccc(I)c2)CC1	106	110	2	-23
C=CCc1ccccc1OCc1cc(=O)n2nc(CC)sc2n1	99	103	15	4
CCOC(=O)c1cc2ccccc2cc1O	101	108	12	.
CCC(C(=O)NC1CCCCC1)n1nc(C)c2c(C)n(-c3ccccc3)nc2c1=O (stereo not drawn)	102	104	27	3
O=C(O)CC1C(=O)NCCN1C/C=C/c1ccccc1 (stereo not drawn)	99	101	-12	-1
C1=CCC(/C=N/Nc2nc3ccccc3o2)CC1 (stereo not drawn)	101	101	-8	-9
O=C(CCS(=O)(=O)c1ccccc1)N1CCc2ccccc21	104	102	4	-22
C=CCNc1nc2ccccn2c(=O)c1/C=C1\SC(=S)N(Cc2ccc3c(c2)OCO3)C1=O	124	152	1	-108
CC(=O)Nc1cc(C(=O)NCCN(C)C)ccc1Sc1ccc(Cl)cc1	102	100	7	-5
Cc1ccc(/C=N/NC(=S)N2CCOCC2)cc1	101	98	14	-91
[N-]=[N+]=NCc1noc(-c2ccccc2)n1	105	110	.	-3
CCOC(=O)c1ccccc1NC(=S)N1CC(C)CC(C)C1 (stereo not drawn)	102	106	-2	-12
COC(=O)c1nc(Cl)c(Cl)c(Cl)c1Cl	103	101	1	-21
Cc1cc(C)cc(NC(=O)C2CCN(c3nc(C)cc(C)n3)CC2)c1	103	102	3	28
CN1CCN(CCCNC(=O)Cn2cccc2C(=O)c2ccccc2)CC1	102	103	6	-13
O=S(=O)(c1ccc(F)c(F)c1)N1CCN(C/C=C/c2ccccc2)CC1	104	101	-8	.
O=C1C=CC(=O)C(Sc2nnnn2-c2ccccc2)=C1	99	103	102*	-3

Continuation:
SMILES	Polio RdRp inh	Polio RdRp inh intensity	MbtI inh	Mtb MenB inh
c1ccc(-c2csc(NC3=NCCCCC3)n2)cc1	105	90	8	-17
O=S(=O)(c1cc(S(=O)(=O)C(F)(F)F)c(Cl)c(S(=O)(=O)C(F)(F)F)c1)C(F)(F)F	.	.	6	6
COc1ccc(CN=CC2C(=O)N(c3nc4ccccc4s3)N=C2C(F)(F)F)cc1 (stereo not drawn)	108	111	.	-8
O=c1[nH]c2ccccc2c2nc(-c3ccc(Cl)cc3)nn12	104	107	-120	.
Cc1ccc(C(=O)OCC2OC3C(Oc4c(C)c(=O)ncn43)C2OC(=O)c2ccc(C)cc2)cc1 (stereo not drawn)	106	108	.	-1
COc1cc2c(cc1OC)[C@@H]1C(=O)c3ccc4c(c3O[C@@H]1CO2)C=CC(C)(C)O4	98	94	-3	-13
Cc1cccc(Nc2nc(N3CCc4ccccc43)ncc2F)c1C	100	101	114	-15
O=c1c2ccccc2nnn1CSc1nc2ccccc2c(=O)n1CCC1=CCCCC1	101	104	-18	-24
CCN(Cc1ccc(OC)c(F)c1)C(=O)C1CCCO1 (stereo not drawn)	107	111	11	-14
N#CCCn1cc(/C=C/C(=O)NCc2ccccc2)c(-c2cc3ccccc3o2)n1	100	107	106	-27
CSc1nc2c(c(=O)n1Cc1ccccc1)C(C)(C)Cc1ccccc1-2	107	107	.	-2
O=C(OC1CCOC1=O)c1cccc(S(=O)(=O)N2CCCC2)c1 (stereo not drawn)	99	108	-3	10
COc1cc(C(=O)N(CCC#N)Cc2ccncc2)cc(OC)c1OC	104	93	-2	-20
Cc1ccc(CN2CCC(CNC(=O)CCn3cccn3)CC2)cc1	101	105	-18	1

Five compounds out of the list, sorted by molar mass, ascending:
SMILES	Polio RdRp inh	Polio RdRp inh intensity	MbtI inh	Mtb MenB inh
c1ccc(-c2csc(NC3=NCCCCC3)n2)cc1	105	90	8	-17
O=c1[nH]c2ccccc2c2nc(-c3ccc(Cl)cc3)nn12	104	107	-120	.
COc1cc2c(cc1OC)[C@@H]1C(=O)c3ccc4c(c3O[C@@H]1CO2)C=CC(C)(C)O4	98	94	-3	-13
COc1ccc(CN=CC2C(=O)N(c3nc4ccccc4s3)N=C2C(F)(F)F)cc1 (stereo not drawn)	108	111	.	-8
O=c1c2ccccc2nnn1CSc1nc2ccccc2c(=O)n1CCC1=CCCCC1	101	104	-18	-24

Assay outcomes (PubChem)
